# MLL AF4-AF9 inh – inhibitors of AF4 peptide binding to AF9, primary screen, biochemical, AlphaScreen, biotin-AF4 peptide, FLAG-AF9, single point. Protein AF-9 (Homo sapiens), P42568. inhibition, % at 10 µM. hit rate 0.47% among 350,000;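 active means every replicate reaching a set inhibition limit, whatever the replicate mean, cut at about 25% in these data; inconclusive means mean inhibition reaches that limit but some replicates miss it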;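 further: 0% = plate neutral control median and 100% = total signal loss; the record names both 10 and 1 µM as test concentration; the first replicate is given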
# Target sequence (P42568 whole entry, looked up): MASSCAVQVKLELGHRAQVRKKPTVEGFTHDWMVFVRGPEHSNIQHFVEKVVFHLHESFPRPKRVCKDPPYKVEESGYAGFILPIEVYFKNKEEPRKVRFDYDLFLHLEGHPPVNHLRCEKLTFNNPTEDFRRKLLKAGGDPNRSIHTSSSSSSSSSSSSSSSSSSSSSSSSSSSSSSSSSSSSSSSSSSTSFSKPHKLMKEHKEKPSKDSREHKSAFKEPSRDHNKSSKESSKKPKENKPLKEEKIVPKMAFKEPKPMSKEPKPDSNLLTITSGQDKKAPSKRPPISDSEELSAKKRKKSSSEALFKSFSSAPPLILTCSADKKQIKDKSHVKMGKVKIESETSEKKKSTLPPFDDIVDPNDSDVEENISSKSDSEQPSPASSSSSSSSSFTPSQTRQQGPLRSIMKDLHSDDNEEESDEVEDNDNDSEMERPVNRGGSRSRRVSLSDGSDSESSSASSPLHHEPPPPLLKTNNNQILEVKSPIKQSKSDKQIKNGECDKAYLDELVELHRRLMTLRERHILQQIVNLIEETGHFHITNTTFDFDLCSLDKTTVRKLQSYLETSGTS
# RanGTP-Impb inh – inhibitors of RanGTP-importin-beta interaction, primary screen, biochemical, FRET, CFP-Ran, YFP-importin-beta, homogeneous | hit rate 1.1% among 300,000 | cell-free CFP-Ran/YFP-importin-beta FRET ratio | inhibition, % (no concentration beside the values) | Ran GTPase (GTP-bound) - importin-beta complex;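 active means most replicates above 15%; inconclusive means exactly half above 15%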;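 further: 0% = DMSO wells and 100% = Ran loaded with GDP instead of GTP; wells of about 40 µL received 100 nL stock; the first replicate is given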
# Vif TR-FRET – inhibitors of Vif binding to APOBEC3G peptide, primary screen, biochemical, TR-FRET, GST-Vif 1-94, biotin-A3G peptide, dose response retest (AID 1117319); inhibition, %; hits with a dose series show IC50 in µM; hit rate 0.57% among 260,000; TR-FRET GST-Vif / biotin-A3G peptide binding; higher % means a stronger effect; test concentration not given here; strong numbers were not always called active;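 active means above the screen mean plus three standard deviations and confirmed in dose response; inconclusive means results disagree or hit not tested in dose response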;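 further: Vif residues 1-94 fused to GST binding biotinylated APOBEC3G peptide 110-148; 0% = full assay without inhibitor and 100% = GST in place of GST-Vif; retest series ran down from 100 µM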
# T cruzi repl – inhibitors of intracellular T. cruzi growth, primary screen, luminescence, NIH3T3 host cells; T. cruzi beta-gal in NIH3T3, 90 h; inhibition, % (concentration not given with the values); hit rate 1.4% among 300,000; AID 1885, 2009;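 active means mean inhibition across valid replicates above about 55%, limit read from the data; inconclusive means mean below that limit but half or more replicates reach it; inactive means mean below it, under half of replicates reach it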;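 further: signal also drops with host cell toxicity which is not excluded here; 0% = plate median of DMSO wells and 100% = zero luminescence signal; higher percent means less beta-gal luminescence so fewer parasites; stock transfer was 50 nL into about 50 µL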
# Bfl-1 A1 inh – caspase 3/7 activation in MEF A1-2A-BIM cells, primary screen, A1 inhibitor project, cell-based, luminescence, HTS; Caspase-Glo 3/7 luminescence, 3 h; percent of clofoctol response, vehicle zero; caspase activation, % (concentration not given with the values); hit rate 0.066% among 330,000;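 active means over half of replicate activation scores above 10%, or exactly half above 10 with the replicate mean above 10; inconclusive means replicate mean below 10 yet half the replicates above 10; inactive means over half of replicates below 10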;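 further: wells of about 30 µL received 50 nL stock; many hits fall short of the cut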
# Ecoli rRNA inh – reduced GFP signal of wild-type E. coli, primary screen, bacterial rRNA inhibitor project, GFP/RFP fluorescence, OD600, single point. E. coli WT GFP vs humanized-ribosome RFP mutants, 24 h; stronger effect = lower value; DMSO median 0, no signal -100. GFP signal change (wild-type ribosome), % (concentration not given with the values). hit rate 1.6% among 350,000. AID 720706, 2013;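 active means significant combined selectivity score with lowered wild-type GFP, culture density cut under 30%, mutant RFP and density less affected; inactive means any of these conditions unmet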; further: one replicate is shown; some compounds called inactive have numbers as strong as hits
# Beta apoptosis – inhibitors of cytokine-induced beta cell apoptosis, primary screen, luminescence; hit rate 0.8% among 300,000; protection from apoptosis, % (test concentration not listed); INS-1E cytokine-induced death, ATP luminescence, 48 h; percent of positive-control rescue, neutral wells zero;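 active means all replicates at 75% or more, or half of them and the mean; inconclusive means half reach 75% but not the mean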;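 further: 0% = cytokine-treated negative control wells and 100% = positive control rescue; higher means more ATP so stronger rescue from cytokine killing; wells of about 40 µL received 100 nL stock; the first replicate is given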
# Calb FLC – C. albicans growth inhibition with fluconazole, primary screen, CaCi-2 strain, Alamar Blue fluorescence | growth inhibition, % (no concentration beside the values) | C. albicans CaCi-2 (fluconazole-resistant clinical isolate) + fluconazole, 48 h | hit rate 0.57% among 300,000;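 active means most replicates above 75%; inconclusive means exactly half above 75%; inactive means most below 75%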;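 further: all wells also contain fluconazole at 8 µg/ml as a sub-toxic cotreatment; 0% = median of DMSO wells and 100% = median of geldanamycin control wells; wells of about 8 µL received 7.5 nL stock; the first replicate is given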
# Ecoli rRNA inh OD600 – further read-out of Ecoli rRNA inh, marked with its call; OD600 change, %; measured here: OD600 growth;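 optical density of the mix in the first replicate; 0 = DMSO median and -100 = no signal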
# Ecoli rRNA inh RFP – also measured in Ecoli rRNA inh; calls as there; RFP signal change, %; measured here: RFP humanized mutant strains;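 first replicate; 0 = DMSO median and -100 = no signal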
# The depositor's hits bear a star; ? = inconclusive; nt = not tested or not shown. This is a subset (hit frequency here may not be typical).
# Every second line gives: RanGTP-Impb inh	MLL AF4-AF9 inh	Vif TR-FRET	Ecoli rRNA inh RFP	Calb FLC	Beta apoptosis	T cruzi repl	Bfl-1 A1 inh	Ecoli rRNA inh OD600	Ecoli rRNA inh
O=C(NCc1ccccn1)C1CCN(S(=O)(=O)c2cccs2)CC1
  3.7	4.7	2%	-7.4	-5	-5	5	0.5	5	6
O=C(CN1C(=O)/C(=C\c2ccccc2Cl)Sc2ccccc21)NCCCN1CCOCC1
  0.7	16	0%	3.7	-43	-1	5	-0.2	-31	-21
O=C(COc1ccccc1C(=O)c1cnn(-c2ccccc2)c1)Nc1ccc2ccccc2c1
  0.2	-1.0	nt	9.8	-5	4	22	-1.5	8	11
Cc1ccc(C2NC(=S)NC3=C2C(=O)CCC3)cc1 (stereo unspecified)
  -1.6	-0.5	-9%	0.8	1	1	-3	-1.1	-5	9
Cc1sc2nc(CSc3nnnn3-c3ccc(Cl)cc3)[nH]c(=O)c2c1C
  -2.8	nt	nt	nt	8	1	5	2.5	nt	nt
CCc1ccccc1N1CC(C(=O)Nc2nccs2)CC1=O (stereo unspecified)
  2.2	-2.2	nt	0.7	0	-3	-12	1.1	9	0
CCCC(=O)Nc1ccc(NC(=O)c2ccccc2Cl)nc1
  2.5	nt	-11%	nt	1	0	2	0.6	nt	nt
O=C(CCCCO)CCCCCCCC[C@H]1N[C@H](CO)[C@H](O)[C@@H]1O[C@@H]1O[C@H](CO)[C@@H](O)[C@H](O)[C@H]1O
  -0.2	nt	30%	nt	3	7	-10	0.7	nt	nt
COc1ccc(C2/C(=C(\O)c3ccc4c(c3)OCCO4)C(=O)C(=O)N2CCCN(C)C)c(OC)c1 (stereo unspecified)
  0.2	nt	-2%	nt	-5	-2	24	-0.3	nt	nt
Cc1ccc(NC(=O)CN(C)C(=O)COC(=O)c2nc3nccc(C)n3n2)cc1
  nt	3.3	0%	-4.6	nt	-1	nt	-1.5	5	5
COc1ccc(NC(=O)COc2cccc3c2OC(C)(C)C3)cc1OC
  nt	-8.9	-14%	-2.5	nt	-1	nt	-1.4	-16	-7
CC(C)CCNC(=O)C(c1ccco1)N(CCCO)C(=O)Cn1nnc(-c2ccc(F)cc2)n1 (stereo unspecified)
  -2.0	-1.6	nt	-0.9	16	-2	5	0.3	-10	0
CC(NC(=O)Cn1cc([N+](=O)[O-])cn1)c1ccc(C(C)(C)C)cc1 (stereo unspecified)
  2.0	1.5	nt	-2.7	-5	-4	14	0.8	-12	-9
COC(=O)c1ccc(CSc2nnc(SCc3ccc(C(=O)OC)o3)s2)o1
  -1.6	nt	13%	nt	-6	-5	-10	0.4	nt	nt
CC(=O)Nc1nonc1NC(=O)CSc1ncn[nH]1
  3.7	nt	-2%	nt	13	-1	-25	0.2	nt	nt
Cc1ccc(S(=O)(=O)N2CCC(C(=O)NCCc3ccccc3)CC2)cc1
  1.9	nt	0%	nt	0	0	-1	1.1	nt	nt
COc1cccc(NS(=O)(=O)c2cc3c(cc2C)N(C)CCO3)c1
  -1.0	8.5	nt	4.0	-12	-6	5	nt	-16	0
COc1ccc(-c2cc(C(=O)NC(Cc3cc4ccccc4[nH]3)C(=O)O)c(C)o2)cc1OC (stereo unspecified)
  2.9	-1.3	nt	-2.5	1	3	8	-1.1	-10	-2
CNC(=O)NC(=O)CSc1ccc(S(=O)(=O)N2CCOCC2)cn1
  nt	3.6	-1%	-1.9	nt	6	nt	0.0	22	10
Cc1cccc(C(C)C)c1NC(=O)COC(=O)Cc1ccsc1
  -1.2	-27	20%	-5.0	-5	-4	-9	-0.3	1	6
CC(Oc1ccccc1Cl)C(=O)Nc1ccc(S(=O)(=O)Nc2nccs2)cc1 (stereo unspecified)
  2.1	?	-7%	-7.4	-1	-3	-8	0.9	-41	-45
COc1c(F)c(F)c(C(=O)Nc2ccc(NC(=O)Cc3ccccc3)cc2)c(F)c1F
  1.2	-5.0	-7%	2.0	-5	-1	2	0.1	12	4
CC(C)Oc1ccc(/C(O)=C2/C(=O)C(=O)N(CCN3CCNCC3)C2c2cccc([N+](=O)[O-])c2)cc1 (stereo unspecified)
  1.7	3.9	nt	1.5	10	4	-20	0.6	19	14
CCOc1c(Br)cc(C2NC(=O)CCC2[N+](=O)[O-])cc1OC (stereo unspecified)
  -6.6	-1.0	-2%	0.0	-1	-3	-18	-0.4	6	10
CCOc1ccccc1C(=O)N[C@H](C(=O)OCc1csc(CC(=O)Nc2ccc(C)cc2)n1)C(C)C
  nt	-1.6	-1%	24	nt	5	nt	0.3	1	-3
COc1ccc(NC(=O)c2cc(OC)c(OC)c(OC)c2)cn1
  -1.9	-2.7	-3%	0.8	8	13	-1	-0.3	-1	-5
C#Cc1ccc([C@@H]2C=C(C(=O)NCc3ccccc3)O[C@H](OCc3ccc(CO)cc3)C2)cc1
  1.3	1.2	7%	-12	5	1	29	0.7	-1	-11
Cc1ccc(S(=O)(=O)N(C)C)cc1NC(=O)COC(=O)c1ccc2c(c1)NC(=O)CS2
  1.0	6.2	9%	0.0	-2	2	-17	1.2	4	6
Cc1[nH]c2ccc(-c3n[nH]c(=S)n3-c3ccccc3)cc2c1C
  -1.3	-2.0	-13%	-3.4	-1	-5	7	-0.1	-16	-23
COc1ccc(C(C#N)N2N=C(C)CC2c2ccccc2)cc1 (stereo unspecified)
  3.5	-2.1	5%	0.7	-4	-3	2	-0.8	18	12
Cc1ccc(Oc2nc(-c3cccnc3)nc3ccccc23)c([N+](=O)[O-])n1
  5.0	-1.6	nt	1.3	4	0	21	-0.6	15	9
O=C(O)c1ccc(N2C(=O)CC(SC(=Nc3ccccc3)Nc3ccccc3)C2=O)cc1 (stereo unspecified)
  6.1	2.2	16%	3.8	-5	0	3	0.1	5	8
COc1ccc(C(=O)N(CN2CCCC2=O)c2ccccc2OC)cc1OC
  3.2	nt	-2%	nt	32	0	16	0.9	nt	nt
CCN(CC)c1ccc(NC(=O)COC(=O)CSc2ccc(Br)cc2C)cc1
  ?	7.1	-3%	-7.9	7	5	-6	-0.8	-10	-1
Cc1cc(NC(=O)CCSc2nc(-c3ccco3)cc(C(F)(F)F)n2)no1
  -4.1	nt	-1%	nt	-4	-10	26	0.2	nt	nt
C=CCSc1nnc(NC(=O)CN2C(=O)NC3(CCCC3)C2=O)s1
  2.5	-1.0	nt	3.0	-2	-3	-16	0.4	8	-2
Cc1cc(COc2ccccc2O)on1
  ?	nt	3%	nt	-4	-9	-2	-0.4	nt	nt
Cn1nc(C(=O)N2CCN(S(=O)(=O)c3ccccc3)CC2)c2ccccc2c1=O
  4.5	nt	1%	nt	14	-2	7	0.2	nt	nt
Cc1nc(N2CCN(Cc3ccccc3)CC2)[nH]c(=O)c1C
  12	nt	nt	nt	-7	6	-3	-0.9	nt	nt
CC(C)(C)c1ccc(-n2ncc3c2CCCC3NC(=O)CN2CCOC2=O)cc1 (stereo unspecified)
  -0.3	0.3	nt	-0.9	6	29	-8	-0.5	-16	-11
O=C(CN1CCN(S(=O)(=O)c2ccc(Br)cc2)CC1)N/N=C/c1cc([N+](=O)[O-])ccc1Cl
  1.1	nt	nt	nt	-8	-2	-7	0.0	nt	nt
COc1ccc(NC(=S)N2CCN(Cc3cccc(F)c3)CC2)c(OC)c1
  -3.9	4.4	0%	-3.5	-1	-4	5	0.7	-6	2
COc1ccc(C(=O)NC2CCN(C(=S)Nc3cc(C)ccc3C)CC2)cc1
  -6.6	nt	-1%	nt	-6	0	-3	0.7	nt	nt
Nc1nc(Nc2cccc(Cl)c2)n[nH]1
  -0.4	2.1	nt	4.6	-1	-4	4	-0.8	7	-3
Brc1ccc(C2=Nn3cnnc3SC2)cc1
  0.8	-2.6	nt	-7.1	2	4	-5	-0.7	-6	-14
COc1ccc(CCNC(=O)C23CCC(C)(C(=O)O2)C3(C)C)cc1OC (stereo unspecified)
  -3.1	9.0	8%	3.6	-2	-15	-3	0.4	6	10
O=C1CN(C(=O)COC(=O)CNS(=O)(=O)c2ccccc2)c2ccccc2N1
  3.9	-7.9	3%	1.5	-10	-7	-10	0.1	0	12
Cc1cc(NS(=O)(=O)c2ccc(NC(=O)/C=C/c3c(F)cccc3Cl)cc2)no1
  -0.8	-1.9	-4%	-12	-9	0	-10	-0.2	-48	-40
CCNC(=S)N1CCC(C(=O)c2ccc(Cl)cc2)CC1
  4.0	0.4	nt	-0.2	-1	1	-15	-0.7	-15	-11
COC(=O)c1sccc1NC(=O)CSc1ccccc1NS(=O)(=O)c1cc(Cl)ccc1Cl
  -2.7	nt	9%	nt	1	0	10	0.2	nt	nt
CC(C(=O)NCC1CCCO1)N1C(=O)C2C3CC(C(Br)C3Br)C2C1=O (stereo unspecified)
  5.9	-3.5	-4%	-2.4	-3	nt	-8	?	-4	1
CCN(CC)S(=O)(=O)c1cccc(-c2nnc(SCC#N)n2Cc2ccccc2)c1
  3.4	nt	-3%	nt	-7	2	13	0.0	nt	nt
Cc1ccc(OCC(=O)c2c(N)n(C)c(=O)n(C)c2=O)c([N+](=O)[O-])n1
  nt	-2.0	?	-0.7	nt	-2	nt	-0.7	8	-8

# 4 compounds picked at random from those above:
# Every second line gives: RanGTP-Impb inh	MLL AF4-AF9 inh	Vif TR-FRET	Ecoli rRNA inh RFP	Calb FLC	Beta apoptosis	T cruzi repl	Bfl-1 A1 inh	Ecoli rRNA inh OD600	Ecoli rRNA inh
Cc1ccc(OCC(=O)c2c(N)n(C)c(=O)n(C)c2=O)c([N+](=O)[O-])n1
  nt	-2.0	?	-0.7	nt	-2	nt	-0.7	8	-8
CCN(CC)c1ccc(NC(=O)COC(=O)CSc2ccc(Br)cc2C)cc1
  ?	7.1	-3%	-7.9	7	5	-6	-0.8	-10	-1
O=C(COc1ccccc1C(=O)c1cnn(-c2ccccc2)c1)Nc1ccc2ccccc2c1
  0.2	-1.0	nt	9.8	-5	4	22	-1.5	8	11
COc1ccc(CCNC(=O)C23CCC(C)(C(=O)O2)C3(C)C)cc1OC (stereo unspecified)
  -3.1	9.0	8%	3.6	-2	-15	-3	0.4	6	10

# Screens deposited in PubChem BioAssay by several laboratories.
